Compound activity: PubChem, National Center for Advancing Translational Sciences (NCATS)
Lassa entry inh = blocks Lassa virus binding to or entry into cells | Lassa virus pseudotype entry inhibition, cell reporter; control for the full effect not named in the record | Potency, µM (doses to about 37.9 µM), without a hit: top-dose activity change, negative = inhibition, hits mostly inhibitors | 1.2% of 300,000 active; active means well fitted inhibition curve with a large enough effect; inconclusive means small, poorly fitted or top-dose-only effect, or effect the other way; inactive means flat fitted curve, though single readings scatter; tested in HEK293 cells; also: % is scaled to controls: 0 for no effect and ±100 for the full control effect; nearly all actives have a fitted effect of over 50% in size; luciferase read-out
Cruzain inh Det = inhibitors of Trypanosoma cruzi cruzain with detergent; P25779; purified cruzain, Z-FR-AMC fluorescence, 0.01% Triton; Potency, µM, inactives show max response, negative = inhibition, usual class: inhibitors; 0.43% of 200,000 active; active = well fitted curve in the direction sought with a large enough effect; inconclusive = small, poorly fitted or top-dose-only effect, or another doubt; inactive = no such curve, though single readings can be large; an effect the other way counts as inactive or inconclusive;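 also: plate controls were neutral wells for no effect and buffer without enzyme for full effect; nearly all actives have a fitted effect of over 40% in size; top concentration of the series not given in the record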
Target sequence (P25779 123-467 limits assumed): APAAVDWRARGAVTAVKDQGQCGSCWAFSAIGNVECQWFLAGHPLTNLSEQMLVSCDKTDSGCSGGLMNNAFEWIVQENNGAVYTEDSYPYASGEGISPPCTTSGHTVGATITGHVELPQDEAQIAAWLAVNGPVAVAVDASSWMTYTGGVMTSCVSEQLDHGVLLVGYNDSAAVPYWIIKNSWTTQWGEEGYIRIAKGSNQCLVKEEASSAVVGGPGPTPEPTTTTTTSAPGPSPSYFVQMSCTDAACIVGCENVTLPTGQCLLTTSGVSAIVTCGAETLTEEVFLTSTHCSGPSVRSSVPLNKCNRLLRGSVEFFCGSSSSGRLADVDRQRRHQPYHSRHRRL
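Purified cruzain (1.5 nM final) was preincubated with compounds for 15 min at room temperature in 100 mM sodium acetate pH 5.5, 5 mM DTT, 0.01% Triton X-100. Reaction started with 2 uM Z-FR-AMC; AMC fluorescence change over 60 s gave activity.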
Cruzain inh noDet = inhibitors of Trypanosoma cruzi cruzain without detergent; 2.3% of 200,000 active; AID 1476; P25779; purified cruzain, Z-FR-AMC fluorescence, no detergent; Potency, µM, without a hit: max response, negative = inhibition, actives largely listed as inhibitors; active = well fitted curve in the direction sought with a large enough effect; inconclusive = small, poorly fitted or top-dose-only effect, or another doubt; inactive = no such curve, though single readings can be large; an effect the other way counts as inactive or inconclusive;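 also: plate controls were enzyme without inhibitor for no effect and buffer without enzyme for full effect; nearly all actives have a fitted effect of over 40% in size; top concentration of the series not given in the record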
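Purified cruzain at 1.5 nM, pre-incubated 15 min with compound at room temperature in 100 mM sodium acetate pH 5.5, 5 mM DTT, 0.00005% Triton X-100. Reaction started with 2 uM Z-FR-AMC; AMC fluorescence increase over 60 s gives rate.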
NS1 function inh = influenza NS1 inhibition. S. cerevisiae slowed by influenza A NS1, growth recovery by OD600. Potency, µM (doses to about 46.1 µM), for inactives: at the highest dose activity, positive = more growth. 0.4% of 270,000 active. AID 2326; also: actives are rising curves; nearly all actives have a fitted effect of over 50% in size
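Recovery from NS1-induced slow growth read by OD600 in budding yeast switched to galactose assay medium (pH 6.0, -URA) at 1:100 dilution. Compound 23 nl per well; the matching strain lacking NS1 serves as control.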
SARS PLpro yeast = SARS-CoV PLP inhibition in yeast; S. cerevisiae expressing SARS-CoV PLpro, growth rescue; control for the full effect not named in the record; Potency, µM (series often up to 32.9 µM), without a hit: at the highest dose activity, positive = growth rescue; 0.19% of 330,000 active; AID 485353; also: 0% is about no effect; nearly all actives have a fitted effect of over 55% in size; growth read by luminescence after 48 h
RE007 growth inh = less growth of the S. pombe RE007 Vpr strain | Potency, µM (doses to about 92.2 µM), without a hit: top-dose activity change, negative = less growth | S. pombe RE007 Vpr strain, BacTiter-Glo ATP luminescence, 24 h; control for the full effect not named in the record | 0.21% of 360,000 active; active = well fitted falling curve with a large enough effect; inconclusive = small, poorly fitted or top-dose-only effect; inactive = no such curve, though single readings can be large or run the other way;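 also: % is scaled to controls: 0 for no effect and ±100 for the full control effect; nearly all actives have a fitted effect of over 50% in size; the assay follows cell death caused by Vpr and the record does not say whether a fall means rescue or toxicity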
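Fission yeast strain RE007, carrying one chromosomally integrated HIV-1 vpr copy, was seeded at OD 0.01 in PMG+AL medium with 23 nL pinned compound. After 24 h at 30 °C and 99% humidity, viability was read by BacTiter-Glo luminescence.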
Marburg entry inh = inhibitors of Marburg virus binding or cell entry | Marburg virus pseudotyped entry inhibition, cell reporter; control for the full effect not named in the record; about a third of the inactives were read at about 46 µM | AID 540276 | 1.8% of 300,000 active | Potency, µM (highest dose often 37.8 µM), inactives show top-dose activity change, negative = inhibition, most hits filed as inhibitors; active = well fitted inhibition curve with a large enough effect; inconclusive = small, poorly fitted or top-dose-only effect, or effect the other way; inactive = flat fitted curve, though single readings scatter; tested in HEK293 cells; about a fifth of its hits are not listed in these tables; also: % is scaled to controls: 0 for no effect and ±100 for the full control effect; luciferase read-out
StopGo reporter = FMDV 2A StopGo reporter, luciferase signal; 1.2% of 410,000 active; human cells with a luciferase reporter of 2A StopGo recoding; control for the full effect not named in the record; Potency, µM (top dose mostly 57.9 µM), without a hit: top-dose signal change, negative = less light; active = well fitted falling curve with a large enough effect; inconclusive = small, poorly fitted or top-dose-only effect; inactive = no such curve, though single readings can be large or run the other way; tested in HEK293T cells; also: % is scaled to controls: 0 for no effect and ±100 for the full control effect; nearly all actives have a fitted effect of over 45% in size; luciferase light after 4 h
* hit, by the source's call; ? = inconclusive; · = not tested or not shown; & = joins results of further samples; [ ] = remark or other dose. Unless noted, calls follow the shape of the dose curve; as a rule, active means well fitted rising curve with a large enough effect; inconclusive means small, poorly fitted or top-dose-only effect; inactive means no such curve, though single readings can be large or run the other way. Potency is read from the fitted curve at half-maximal effect.

SMILES	Lassa entry inh	Cruzain inh Det	Cruzain inh noDet	NS1 function inh	SARS PLpro yeast	RE007 growth inh	Marburg entry inh	StopGo reporter
CCN1CCN(Cc2cc(OC)c3c(c2)OCO3)CC1	·	·	·	7%	-4%	1%	·	-10%
COc1ccccc1-c1c(C(F)(F)F)oc2cc(OS(C)(=O)=O)ccc2c1=O	?	-10.0%	7%	-6%	9%	8%	?	32µM*
Cc1cccc(C(C(N)=O)c2ncc(C(F)(F)F)cc2Cl)c1 (stereo not given)	-5%[46.1 µM]	·	·	4%	0%	-6%	?	-2%
CC1=C(C(=O)N2CCOCC2)C(c2ccccc2F)C2=C(CCCC2=O)N1 (stereo not given)	-13%	3.8%	-13%	3%	0%	9%	27%	·
O=c1[nH]c(=O)n(CCc2ccccc2)c(O)c1C=NCc1ccc2c(c1)OCO2	?	-7.2%	-11%	1%	-3%	4%	1%	24%
COCCN(Cc1cc2cc3c(cc2n2nnnc12)OCO3)C(=O)c1ccccc1F	0%	-2.1%	7%	0%	1%	-13%	1%&-11%	19%
CCOC(=O)C1CCN(c2nc3ccccc3nc2C(C#N)C(=O)NCCc2ccccc2)CC1 (stereo not given)	·	-8.1%	-3%	-68%	-49%	·	-4%	·
O=C(CSc1nnc(-c2ccccc2)o1)NC1CCS(=O)(=O)C1 (stereo not given)	?	-0.8%	1%	17%	-4%	10%	5%	-6%
CCOC(=O)N1CCC(NC(=O)CCc2c(C)nc3c(c(C)nn3C(C)(C)C)c2C)CC1	?	-1.0%	?	-15%	13%	-1%	?	?
C=CCn1c(COc2ccc3c(c2)CCCC3)nnc1SCC(=O)Nc1cccc(SC)c1	-12%	-7.3%	-9%	-8%	-7%	-4%	?	-26%
Cc1cc(C)c(S(=O)(=O)Nc2c(C)n(C)n(-c3ccccc3)c2=O)cc1[N+](=O)[O-]	·	·	·	-5%	1%	0%	·	3%
COc1ccc(-n2cc(CNCC3CC(=O)N(C4CC4)C3)c(-c3ccccc3Cl)n2)cc1 (stereo not given)	?	·	·	3%	0%	-3%	11µM*	-13%
CCCn1cc(S(=O)(=O)c2ccc(C)cc2)c(=O)c2cc(OC)c(OC)cc21	-5%[46.1 µM]	0.1%	?	3%	2%	6%	?	5%&13%
O=C1NCCc2c1[nH]c1c(Cl)ccc(Cl)c21	13%	-1.9%	10%	-65%	-1%	-12%	9%	-27%
COc1ccc(C)cc1NC(=O)CCNS(=O)(=O)c1ccc2c(c1)CC(C)N2C(C)=O (stereo not given)	·	·	·	0%	-6%	8%	·	-11%
COc1ccc(Br)cc1CNC(=O)CCC(=O)n1nc(C)c2ccccc21	·	·	·	9%	-4%	0%	·	0%
CC1CCCCN1C(=O)Cc1ccc(Cl)cc1 (stereo not given)	19%	-0.2%	6%	2%	2%	-1%	19%[46.1 µM]	0%
CN(C)C(CNC(=O)C1CCN(S(=O)(=O)c2ccccc2)CC1)c1ccccc1 (stereo not given)	·	·	·	9%	1%	7%	·	-4%
COc1ccc(CNCc2cccc(OC)c2OC)cc1Br	1%	·	·	·	1%	-7%	?	-16%
O=C(O)c1cccc(S(=O)(=O)N(Cc2ccccc2)c2cccc(C(F)(F)F)c2)c1	3%[46.1 µM]	·	·	9%	3%	0%	-8%[46.1 µM]	-4%
CC(C)(C)NS(=O)(=O)c1ccc(CCC(=O)Nc2ccc3c(c2)OCO3)cc1	?	2.5%	-12%	-1%	-8%	-3%	-10%	·
CCOc1ccc(Br)cc1S(=O)(=O)Nc1cccc(S(=O)(=O)N(C)C)c1	?	-6.8%	-4%	0%	20%	6%	19%	86%[activator]
CCCCN(CC)CCCNC(=O)c1cc2c(=O)n(CC)c3ccccc3c2s1	-2%	·	·	-2%	2%	-7%	11µM*	-7%
O=C(CSc1nc(=O)[nH]c2c1CCCC2)Nc1ccc(Cl)c(Cl)c1	13%[46.1 µM]	-0.7%	-8%	·	·	·	·	0%
O=C(c1cc(Br)ccc1Cl)N1CCC2(CC1)OCCO2	18%	1.5%	3%	3%	2%	-2%	13%	6%
Cc1ccc(C(=O)OCC(=O)NCC2CCCO2)c(C)c1 (stereo not given)	?	·	·	·	-1%	-19%	17%[46.1 µM]	17%
COc1ccccc1NC(=O)CCCc1c[nH]c2ccccc12	-5%	-5.8%	5%	-19%	-8%	13%	?	-6%
Cc1cc(S(=O)(=O)C(CNC(=O)c2ccc(OC(C)C)cc2)c2cccs2)ccc1F (stereo not given)	-4%[46.1 µM]	-5.0%	-9%	·	·	·	·	?
COc1ccc(CN2CCN(C(=O)c3ccccc3F)CC2)c(OC)c1OC	-1%[46.1 µM]	·	·	·	·	5%	-6%[46.1 µM]	-11%
O=C(O)c1ccc(CS(=O)c2cccc(C(F)(F)F)c2)o1 (stereo not given)	13%	1.0%	-5%	-25%	2%	8%	-2%	12%
Cc1ccc(S(=O)(=O)/N=C(\c2ccccc2)N(C)S(=O)(=O)c2ccccc2)cc1	4%	-5.7%	-5%	-18%	-21%	-3%	5%	5%
CCCN(CCC)CCNC(=S)Nc1ccc2nc3n(c(=O)c2c1)CCCCC3	1%	·	·	·	-2%	13%	?	-21%
O=C(CCC(=O)c1ccc(Br)cc1)Nc1cccnc1	·	·	·	0%	1%	-2%	·	4%
Cc1cc(S(=O)(=O)NCCc2csc(-c3cccc(F)c3)n2)ccc1F	-9%[46.1 µM]	-11%	7%	·	·	·	·	22%
O=C(O)c1ccc(/C=N/NC(=O)c2ccc(NS(=O)(=O)c3cccs3)cc2)cc1	·	·	·	1%	0%	14%	·	11%
COc1ccc(NC(=O)C2CCCN(S(=O)(=O)c3ccc(C)cc3)C2)cc1OC (stereo not given)	-5%	-3.9%	?	-46%	11%	3%	?	22µM*
COc1ccccc1/C=C1\NC(=S)N(CC2CCCO2)C1=O (stereo not given)	2%	-8.7%	-2%	-7%	-21%	12%	-1%	·
CC(C)C(=O)NCCc1nc2ccccc2n1CCOc1ccccc1	-7%	-13%	6%	-12%	10%	-18%	-1%	-15%
O=c1c2cc(-c3ccccc3)sc2nc2n1N=C(c1cccs1)CS2	?	·	·	5%	-1%	7%	?	-29%
CC(C)C(NC(=O)OCc1ccccc1)C(=O)O (stereo not given)	7%	6.6%	-2%	6%	0%	8%	-8%	-9%
COc1ccc(-c2cc(C(=O)NCCN3CCOCC3)c3ccccc3n2)cc1OC	-7%	·	·	7%	?	-13%	17%	-8%
O=C(COc1ccccc1)Nc1ccc2nc(SCC(=O)N3CCOCC3)sc2c1	0%[46.1 µM]	-6.9%	?	·	·	·	-21%[46.1 µM]	?
COc1ccc(OCCCC(=O)OC(C)C(=O)Nc2ccc(C)cc2)cc1 (stereo not given)	1%	·	·	·	-3%	6%	10%	-8%
N#Cc1ccccc1CSc1nc2ccsc2c(=O)n1Cc1ccccn1	?	-3.1%	-2%	0%	-9%	4%	?	14%
O=C(CSc1nc2scc(-c3ccccc3)c2c(=O)[nH]1)NCCc1ccccc1	-6%	·	·	-5%	-4%	-6%	-7%	-26%
c1ccc(N=P(c2nc3ccccc3o2)(N2CCOCC2)N2CCOCC2)cc1	-11%	5.1%	-3%	-9%	-1%	0%	-2%&3%	·
O=c1cc(COc2ccc(Cl)c(Cl)c2)nc2sccn12	5%	·	·	1%	-2%	18%	14%	24%
COc1ccc(NC(=O)CSc2nc3nc(C)cc(C)c3c(=O)[nH]2)cc1OC	1%	·	·	·	-1%	-23%	1%	-2%
Oc1c(Br)cc(Cl)cc1C=Nc1ccc(N2CCOCC2)cc1	?	·	·	5%	0%	-7%	57%[46.1 µM]	-21%
Cc1ccc(N(C)C(=O)N2CCN(c3ccccn3)CC2)cc1	·	2.2%	-4%	2%	3%	-6%	·	-8%
Cc1ccc(Cn2c(=O)n(Cc3ccccc3)c(=O)c3c(C)c(C)sc32)cc1	15%[46.1 µM]	1.3%	-2%	·	·	·	-4%[46.1 µM]	2%
Nc1cc2c(cc1[N+](=O)[O-])-c1ccccc1C2=NO	?	·	·	·	·	25%	?	10%
CC1CCN(S(=O)(=O)c2ccc(C(=O)N3CCN(c4ccccc4F)CC3)cc2)CC1	7%[46.1 µM]	·	·	1%	5%	16%	23%[46.1 µM]	-18%
COc1cc(NC(=O)CN2C(=O)c3ccccc3C2=O)c(C(=O)O)cc1OC	10%	1.3%	-11%	-4%	-8%	6%	17%	3%
Cc1ccc(CN(Cc2ccccn2)C(=O)Nc2c(F)cccc2F)cc1	-22%[46.1 µM]	·	·	-6%	0%	8%	25%[46.1 µM]	-18%
Cc1c(NC(=O)c2cc(CC(C)C)on2)c(=O)n(-c2ccccc2)n1C	·	-5.8%	-9%	9%	-2%	12%	·	-9%
Cc1ccc(C)c(OCc2nnc(SCC(=O)NC(=O)NCc3ccco3)o2)c1	-24%	·	·	·	-7%	-16%	-14%[46.1 µM]	8%
O=C(c1ccccc1F)N1CCN(Cc2nc3sc4c(c3c(=O)[nH]2)CCCC4)CC1	?	·	·	12%	0%	6%	?	?
CCOC(=O)c1c(C)[nH]c(C)c1C(=O)COC(=O)c1c(OC)cccc1OC	-1%	-2.7%	16%	21%	8%	10%	?	-2%
CCN(CC)S(=O)(=O)c1ccc(C)c(NC(=O)c2cc(C)oc2C)c1	?	·	·	·	-1%	19%	?	-15%
(continued)
SMILES	Lassa entry inh	Cruzain inh Det	Cruzain inh noDet	NS1 function inh	SARS PLpro yeast	RE007 growth inh	Marburg entry inh	StopGo reporter
CC(C)(C)NC(=O)COC(=O)CNC(=O)c1cc(Cl)cc([N+](=O)[O-])c1	18%	25µM*	20µM*	-4%	-2%	4%	-1%	-15%
O=C(NC1=NCCS1)c1ccncc1	2%	-1.4%	-9%	?	6%	10%	-18%	-8%
O=C(Nc1nccs1)c1ccc(F)c(S(=O)(=O)N2CCOCC2)c1	?	·	·	5%	-4%	-1%	-15%	?
Cc1ccc(C(=O)COC(=O)C(Cc2c[nH]c3ccccc23)NC(=O)c2ccc(Br)cc2)cc1 (stereo not given)	?	-1.0%	13µM*	·	·	·	·	15%
